T cruzi inh: inhibitors of intracellular T. cruzi growth, primary screen, luminescence, NIH3T3 host cells; T. cruzi beta-gal in NIH3T3, 90 h; inhibition, % (test concentration not listed); 300,000 tested, 1.4% active;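 active means mean inhibition across valid replicates above about 55%, limit read from the data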;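 further: signal also drops with host cell toxicity which is not excluded here; 0% = plate median of DMSO wells and 100% = zero luminescence signal; higher percent means less beta-gal luminescence so fewer parasites; stock transfer was 50 nL into about 50 µL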
Calb FLC: C. albicans growth inhibition with fluconazole, primary screen, CaCi-2 strain, Alamar Blue fluorescence; C. albicans CaCi-2 (fluconazole-resistant clinical isolate) + fluconazole, 48 h; growth inhibition, % (test concentration not listed); 300,000 tested, 0.57% active;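 active means most replicates above 75%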;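 further: all wells also contain fluconazole at 8 µg/ml as a sub-toxic cotreatment; 0% = median of DMSO wells and 100% = median of geldanamycin control wells; wells of about 8 µL received 7.5 nL stock; the first replicate is given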
LANA-H2A inh: blockers of LANA interaction with H2A/H2B – biochemical, FP readout, HTS, primary screen; cell-free LANA-H2A/H2B peptide, fluorescence polarization; 320,000 tested, 0.6% active; Protein LANA1 (Human herpesvirus 8 type P (isolate GK18)), Q9QR71; inhibition, % (concentration not given with the values); in the data active means inhibition mostly above about 10%, no sharp cut-off; inactive means mostly below about 6.7%;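 further: stock transfer was 7.5 nL into about 10 µL; 0% = median of vehicle wells and 100% = median of positive control wells; one replicate is shown; the record names a cut of 25% in any replicate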
A1 inh: caspase 3/7 activation in MEF A1-2A-BIM cells, primary screen, A1 inhibitor project, cell-based, luminescence, HTS | caspase activation, % (concentration not given with the values) | 330,000 tested, 0.066% active | Caspase-Glo 3/7 luminescence, 3 h; percent of clofoctol response, vehicle zero;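 active means over half of replicate activation scores above 10%, or exactly half above 10 with the replicate mean above 10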;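 further: wells of about 30 µL received 50 nL stock; many hits fall short of the cut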
ALR H2O2 inh: inhibitors of human ALR sulfhydryl oxidase, primary screen, biochemical, H2O2 detection, HRP-luminol luminescence, single point; purified ALR, DTT oxidation; inhibition, % (no concentration beside the values); AID 485317, 2010; 290,000 tested, 3.8% active;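 active means mean and each replicate at 75% or more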;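 further: stock transfer was 7.5 nL into about 7.5 µL; 0% = neutral wells and 100% = wells with inactivated enzyme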
Target sequence (P55789 whole entry, looked up): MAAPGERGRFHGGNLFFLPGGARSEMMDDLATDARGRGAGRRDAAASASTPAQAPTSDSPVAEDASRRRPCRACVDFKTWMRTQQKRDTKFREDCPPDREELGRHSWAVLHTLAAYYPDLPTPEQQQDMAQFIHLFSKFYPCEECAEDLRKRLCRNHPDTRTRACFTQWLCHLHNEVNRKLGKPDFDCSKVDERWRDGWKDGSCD
Beta cell apopt: inhibitors of cytokine-induced beta cell apoptosis, primary screen, luminescence; AID 435005, 2010; 300,000 tested, 0.8% active; protection from apoptosis, % (concentration not given with the values); INS-1E cytokine-induced death, ATP luminescence, 48 h; percent of positive-control rescue, neutral wells zero;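 active means all replicates at 75% or more, or half of them and the mean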;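 further: 0% = cytokine-treated negative control wells and 100% = positive control rescue; higher means more ATP so stronger rescue from cytokine killing; wells of about 40 µL received 100 nL stock; the first replicate is given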
B2AR ag: beta2AR agonists driving receptor internalization, primary screen, cell-based, FAP fluorogen, flow cytometry; Beta-2 adrenergic receptor (Homo sapiens), P07550; AID 504454, 2011; 340,000 tested, 0.43% active; response, % (concentration not given with the values); Am2.2-beta2AR cells; reference of the scale not given here;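 active means response above a set limit, near 3 SD of response in nonfluorescent compounds, cut at about 42% in these data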;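 further: stock transfer was 100 nL into about 11 µL; a reference agonist was the positive control; negative values mostly stem from fluorescent compounds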
Target sequence (P07550 whole entry, looked up): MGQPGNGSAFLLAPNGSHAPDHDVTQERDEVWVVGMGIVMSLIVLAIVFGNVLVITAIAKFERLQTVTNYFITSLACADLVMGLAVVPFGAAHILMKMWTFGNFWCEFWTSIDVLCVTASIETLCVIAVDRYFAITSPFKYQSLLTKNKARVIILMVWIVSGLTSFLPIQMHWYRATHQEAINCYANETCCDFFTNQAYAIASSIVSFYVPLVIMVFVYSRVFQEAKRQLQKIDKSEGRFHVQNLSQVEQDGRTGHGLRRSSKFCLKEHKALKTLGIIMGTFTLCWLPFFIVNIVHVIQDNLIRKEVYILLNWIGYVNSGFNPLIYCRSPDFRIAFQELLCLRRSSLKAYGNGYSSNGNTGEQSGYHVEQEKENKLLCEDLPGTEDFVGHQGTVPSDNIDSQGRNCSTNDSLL
rRNA inh HTS: reduced GFP signal of wild-type E. coli, primary screen, bacterial rRNA inhibitor project, GFP/RFP fluorescence, OD600, single point; GFP signal change (wild-type ribosome), % (concentration not given with the values); E. coli WT GFP vs humanized-ribosome RFP mutants, 24 h; active compounds read low; DMSO median 0, no signal -100; 350,000 tested, 1.6% active;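 active means significant combined selectivity score with lowered wild-type GFP, culture density cut under 30%, mutant RFP and density less affected; inactive means any of these conditions unmet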; further: one replicate is shown; some compounds called inactive have numbers as strong as hits
rRNA inh HTS OD600: recorded beside rRNA inh HTS, whose call it bears; OD600 change, %; measured here: OD600 growth;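 optical density of the mix in the first replicate; 0 = DMSO median and -100 = no signal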
rRNA inh HTS RFP: recorded beside rRNA inh HTS, whose call it bears; RFP signal change, %; measured here: RFP humanized mutant strains;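 first replicate; 0 = DMSO median and -100 = no signal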
Active calls of the source: *; . = no result given. An excerpt, so the mix of outcomes need not match the whole.

Start of the data: the first two entries, to show the layout:
Below each SMILES: T cruzi inh, Calb FLC, LANA-H2A inh, A1 inh, ALR H2O2 inh, Beta cell apopt, B2AR ag, rRNA inh HTS, rRNA inh HTS OD600, rRNA inh HTS RFP
CN1CCN2c3ccc(N)cc3CC3(C(=O)NC(=O)NC3=O)C2C1 (configuration not stated)
  -2.8, 4.5, ., ., ., ., -2.1, 7.7, 11.7, 18.2
O=c1[nH]c(O)c(C=NCCc2ccccc2)c(=O)[nH]1
  -4.2, -19.4, -0.2, -0.3, -10.5, -2.6, 0.9, 7.0, -2.1, 0.2

This part in full, previewed entries included:
Below each SMILES: T cruzi inh, Calb FLC, LANA-H2A inh, A1 inh, ALR H2O2 inh, Beta cell apopt, B2AR ag, rRNA inh HTS, rRNA inh HTS OD600, rRNA inh HTS RFP
CN1CCN2c3ccc(N)cc3CC3(C(=O)NC(=O)NC3=O)C2C1 (configuration not stated)
  -2.8, 4.5, ., ., ., ., -2.1, 7.7, 11.7, 18.2
O=c1[nH]c(O)c(C=NCCc2ccccc2)c(=O)[nH]1
  -4.2, -19.4, -0.2, -0.3, -10.5, -2.6, 0.9, 7.0, -2.1, 0.2
Cc1ccc(N2C(=O)/C(=C/c3ccc(CN(CCC#N)S(C)(=O)=O)o3)C(=O)NC2=S)cc1
  18.1, 10.8, -3.6, -0.3, -1.2, -6.2, 1.6, ., ., .
O=C(CCN1CCCCC1)Nc1ccc(Cl)cc1C(=O)c1ccccc1
  10.6, -5.8, 1.4, 2.3, 5.4, -4.6, -0.4, 3.4, -5.0, -1.1
C[n+]1c2ccccc2nc2ccc(NCCO)cc21
  10.0, -10.5, 7.2, -0.5, -16.5, 22.1, 18.4, -1.0, 13.9, 31.4
O=C(Cc1ccccc1)Oc1ccccc1N1C(=O)CCC1=O
  -13.9, 11.2, -0.8, 0.1, 9.1, 1.2, 2.1, ., ., .
Fc1ccc(CNCCc2ccc3c(c2)OCO3)cc1
  34.5, -19.9, 3.6, 2.4, -4.1, -0.7, -4.5, 6.1, -1.9, -0.3
CN1CCN(C(=O)Cc2nc3ccccc3[nH]2)CC1
  14.8, -12.1, -5.8, 0.5, -2.1, -3.3, 11.1, 10.5, 10.1, 7.8
COc1ccc(-n2c(O)c(C=Nc3c(C)n(C)n(-c4ccccc4)c3=O)c(=O)[nH]c2=O)cc1
  -2.1, 11.2, -3.5, 0.3, 5.8, 2.5, 1.8, ., ., .
COC(=O)C1=C(c2c(C)noc2C)C[C@@H]2CC[C@H]1N2C(=O)NCCNC(C)=O
  ., ., 3.3, 0.9, 1.2, -0.5, 6.4, 2.3, 7.2, -4.3
CCCOc1ccc(N2C(=O)CC(N3CC=C(c4ccccc4)CC3)C2=O)cc1 (configuration not stated)
  17.4, -5.6, -0.6, 0.4, 1.5, -10.7, -7.2, 4.3, 3.8, 3.5
CC/C(=N\NC(=O)Nc1ccccc1)c1c(O)n(Cc2ccccc2)c(=O)[nH]c1=O
  -2.9, 1.6, 8.2, -0.3, 36.8, 0.0, 7.5, -6.4, -0.5, -0.8
Clc1ccc(CCC(Cn2ccnc2)Sc2c(Cl)cccc2Cl)cc1 (configuration not stated)
  ., ., -0.6, 0.5, 0.6, 16.1, 16.8, -48.4, -71.6, 4.8

Ordered by SMILES length (high to low): some entries from above.
Below each SMILES: T cruzi inh, Calb FLC, LANA-H2A inh, A1 inh, ALR H2O2 inh, Beta cell apopt, B2AR ag, rRNA inh HTS, rRNA inh HTS OD600, rRNA inh HTS RFP
O=C(CCN1CCCCC1)Nc1ccc(Cl)cc1C(=O)c1ccccc1
  10.6, -5.8, 1.4, 2.3, 5.4, -4.6, -0.4, 3.4, -5.0, -1.1
O=c1[nH]c(O)c(C=NCCc2ccccc2)c(=O)[nH]1
  -4.2, -19.4, -0.2, -0.3, -10.5, -2.6, 0.9, 7.0, -2.1, 0.2
O=C(Cc1ccccc1)Oc1ccccc1N1C(=O)CCC1=O
  -13.9, 11.2, -0.8, 0.1, 9.1, 1.2, 2.1, ., ., .

Single records, from the list above:
`CC/C(=N\NC(=O)Nc1ccccc1)c1c(O)n(Cc2ccccc2)c(=O)[nH]c1=O` is entered as T cruzi inh = -2.9; Calb FLC = 1.6; LANA-H2A inh = 8.2; A1 inh = -0.3; ALR H2O2 inh = 36.8; Beta cell apopt = 0.0; B2AR ag = 7.5; rRNA inh HTS = -6.4; rRNA inh HTS OD600 = -0.5; rRNA inh HTS RFP = -0.8
`O=c1[nH]c(O)c(C=NCCc2ccccc2)c(=O)[nH]1` is entered as T cruzi inh = -4.2; Calb FLC = -19.4; LANA-H2A inh = -0.2; A1 inh = -0.3; ALR H2O2 inh = -10.5; Beta cell apopt = -2.6; B2AR ag = 0.9; rRNA inh HTS = 7.0; rRNA inh HTS OD600 = -2.1; rRNA inh HTS RFP = 0.2

High-throughput results deposited in PubChem BioAssay by several laboratories.
